Screens as filed in PubChem BioAssay.
HSV augment: HSV replication enhancement; HSV replication augmentation in cells, fold increase; maximum fold increase; 0.005% of 220,000 active; AID 1956;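 active = peak rise of 1.5-fold or more in the series; tested in PC3 cells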;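 note: first round at 10 µM; read as green reporter fluorescence; hits show the peak of a series up to 25 µM; 1 = signal of infected wells without compound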
INS promoter inh: TRM-6 insulin promoter activity inhibition | TRM-6 cells (human fetal islet line), insulin promoter-eGFP reporter, imaging; reporter expression induced with tamoxifen | inhibition, % at 2 µM | 0.9% of 130,000 active | AID 1273;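 active = inhibition above the mean plus 3 SD, with well images judged a real hit on visual review, cut at about 60% in these data, passing the limit was not always enough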
GALR2 ag: GALR2 (human) receptor agonism. O43603. GALR2-expressing cells, agonist activation read-out. activation, %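 (tested at 5 µM)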. 0.48% of 140,000 active;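 active = above mean plus 3 SD of all compounds, about 5% in these data, not always enough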;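 note: 0% = vehicle buffer wells and 100% = reference agonist at full effect; tested in CHO reporter cells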
Target sequence (O43603 whole entry, looked up): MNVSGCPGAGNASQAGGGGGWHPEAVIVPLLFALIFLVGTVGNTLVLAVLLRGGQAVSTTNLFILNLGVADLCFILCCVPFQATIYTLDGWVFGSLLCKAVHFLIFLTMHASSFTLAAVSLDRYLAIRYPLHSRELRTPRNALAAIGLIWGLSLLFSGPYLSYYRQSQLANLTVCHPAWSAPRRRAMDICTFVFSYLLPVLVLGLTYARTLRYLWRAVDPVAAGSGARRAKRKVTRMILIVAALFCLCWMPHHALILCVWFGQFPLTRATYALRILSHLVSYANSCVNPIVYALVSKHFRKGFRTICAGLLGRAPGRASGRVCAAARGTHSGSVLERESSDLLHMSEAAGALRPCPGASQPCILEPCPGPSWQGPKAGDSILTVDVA
PKD1 inh: PKD1 (human) kinase inhibition; Q15139; PKD1 kinase fluorescence polarization assay; inhibition, %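 (about 10 µM by stock and volumes)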; 0.056% of 200,000 active;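 active = inhibition of 50% or more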;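 note: controls were vehicle for no effect and a reference inhibitor for full effect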
RGS16-Gao: modulates binding between human RGS16 and Galphao | AID 1441 | bead-based flow cytometry RGS16-Galphao binding, fluorescence; actives lie on both sides | 0.38% of 220,000 active | binding response (% of control), % at 10 µM | O15492+P09471;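 active = below 25% or above 175%, edge rows of some plates excepted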;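 note: Galphao activated by GDP with aluminum fluoride before binding; 100% = wells without compound and 0% = beads without RGS; some results beyond the cut were filed as inactive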
Target sequence (O15492 whole entry, looked up): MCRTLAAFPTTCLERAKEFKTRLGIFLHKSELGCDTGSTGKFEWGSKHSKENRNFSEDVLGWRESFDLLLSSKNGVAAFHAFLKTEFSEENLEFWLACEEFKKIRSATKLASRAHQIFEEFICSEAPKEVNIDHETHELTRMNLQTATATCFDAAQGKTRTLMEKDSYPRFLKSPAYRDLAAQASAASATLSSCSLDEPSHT
Target sequence (P09471 whole entry, looked up): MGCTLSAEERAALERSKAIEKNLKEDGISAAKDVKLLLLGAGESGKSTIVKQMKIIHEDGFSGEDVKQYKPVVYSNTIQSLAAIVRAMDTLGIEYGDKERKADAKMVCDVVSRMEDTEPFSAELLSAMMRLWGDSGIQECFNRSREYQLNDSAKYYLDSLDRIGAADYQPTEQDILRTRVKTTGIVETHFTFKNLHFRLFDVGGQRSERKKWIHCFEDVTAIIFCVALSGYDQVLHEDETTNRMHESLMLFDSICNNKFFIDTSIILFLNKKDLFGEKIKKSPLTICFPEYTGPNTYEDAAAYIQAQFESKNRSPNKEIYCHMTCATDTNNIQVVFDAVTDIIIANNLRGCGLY
INS promoter inh cell count: also measured in INS promoter inh; calls as there; normalized cell count, %; measured here: cell count, toxicity; reference of the scale not given here;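 cells exposed to compound for 48 h; stained nuclei by imaging scaled within each plate; lower means fewer cells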
HSV augment primary fold: also measured in HSV augment; calls as there; fold increase; compound at 10 µM; measured here: primary screen fold increase 10 uM; tested in PC3 cells;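 GFP signal in the first replicate; 1 = infected wells without compound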
Active calls of the source: *; i = inactive; nt = not tested or not shown.

SMILES	HSV augment	HSV augment primary fold	INS promoter inh	INS promoter inh cell count	GALR2 ag	PKD1 inh	RGS16-Gao
Cc1ccc(/C=N/NC(=O)Cc2cccn2C)cc1	i	1.07	nt	nt	nt	nt	103.5
Clc1cccc(-c2nn3c(Cn4cnc5ccccc54)nnc3s2)c1	i	1	-37.9	63.3	-1.8	-8.2	96.9
Cc1cccc(S(=O)(=O)c2c(N)n(/N=C/c3cccnc3)c3nc4ccccc4nc23)c1	i	0.7	nt	nt	-0.7	5.8	98.9
CCOc1c(CNc2nnnn2C)cccc1OC	i	1.08	26.3	97.3	nt	-9.3	106.8
CC(/C=C/c1ccco1)=N/NC(=O)c1ccc(C)nc1	i	1.12	nt	nt	nt	nt	95.0
COCCN(CCOC)C(=O)CC(=O)N(CCOC)CCOC	i	0.95	-4.2	76.7	1.2	7.5	100.9
COC(=O)c1ccc(S(=O)(=O)N2CCCCCC2)cc1	i	0.83	-9.1	104.8	-2.8	1.7	87.8
CC(c1ccccc1)C1C(C#N)=C(N)OC2=C1C(=O)CCC2 (stereo not given)	i	0.94	45.5	117.3	0.3	4.6	102.7
O=C(NCCc1ccccc1)C(=O)c1c(-c2ccccc2)cc2ccccn12	i	0.9	nt	nt	0.0	-6.8	101.8
CCSc1nc2ccccc2c(=O)n1OCC(=O)OC	i	0.86	0.0	44.2	0.4	1.6	58.3
CC1(C)C2CC=C(/C=N/NC(=S)NCCc3ccccc3)C1C2 (stereo not given)	i	1.07	-57.9	132.8	nt	-4.4	98.1
Cc1ccc(C)n1NC(=O)c1ccc([N+](=O)[O-])cc1	i	1.11	29.4	125.0	nt	-1.8	96.1
CCS(=O)(=O)N1Cc2ccccc2CC1C(=O)Nc1ccc(C)cc1 (stereo not given)	i	0.74	-24.3	162.2	-0.8	4.2	198.0
O=C(N/N=C/C=C/c1ccccc1)c1cccnc1	i	0.84	nt	nt	nt	nt	107.9
COc1cc(C2C(C#N)=C(N)Oc3cc(C)oc(=O)c32)cc2c1OCO2 (stereo not given)	i	1.11	42.9	77.4	0.1	-4.7	99.2

Not a retest: entries from further up.
SMILES	HSV augment	HSV augment primary fold	INS promoter inh	INS promoter inh cell count	GALR2 ag	PKD1 inh	RGS16-Gao
Clc1cccc(-c2nn3c(Cn4cnc5ccccc54)nnc3s2)c1	i	1	-37.9	63.3	-1.8	-8.2	96.9
Cc1cccc(S(=O)(=O)c2c(N)n(/N=C/c3cccnc3)c3nc4ccccc4nc23)c1	i	0.7	nt	nt	-0.7	5.8	98.9
CCOc1c(CNc2nnnn2C)cccc1OC	i	1.08	26.3	97.3	nt	-9.3	106.8
CC(/C=C/c1ccco1)=N/NC(=O)c1ccc(C)nc1	i	1.12	nt	nt	nt	nt	95.0
COCCN(CCOC)C(=O)CC(=O)N(CCOC)CCOC	i	0.95	-4.2	76.7	1.2	7.5	100.9
COC(=O)c1ccc(S(=O)(=O)N2CCCCCC2)cc1	i	0.83	-9.1	104.8	-2.8	1.7	87.8
CC(c1ccccc1)C1C(C#N)=C(N)OC2=C1C(=O)CCC2 (stereo not given)	i	0.94	45.5	117.3	0.3	4.6	102.7
O=C(NCCc1ccccc1)C(=O)c1c(-c2ccccc2)cc2ccccn12	i	0.9	nt	nt	0.0	-6.8	101.8
CCSc1nc2ccccc2c(=O)n1OCC(=O)OC	i	0.86	0.0	44.2	0.4	1.6	58.3
CC1(C)C2CC=C(/C=N/NC(=S)NCCc3ccccc3)C1C2 (stereo not given)	i	1.07	-57.9	132.8	nt	-4.4	98.1
Cc1ccc(C)n1NC(=O)c1ccc([N+](=O)[O-])cc1	i	1.11	29.4	125.0	nt	-1.8	96.1
CCS(=O)(=O)N1Cc2ccccc2CC1C(=O)Nc1ccc(C)cc1 (stereo not given)	i	0.74	-24.3	162.2	-0.8	4.2	198.0
O=C(N/N=C/C=C/c1ccccc1)c1cccnc1	i	0.84	nt	nt	nt	nt	107.9
COc1cc(C2C(C#N)=C(N)Oc3cc(C)oc(=O)c32)cc2c1OCO2 (stereo not given)	i	1.11	42.9	77.4	0.1	-4.7	99.2

The results go on:
SMILES	HSV augment	HSV augment primary fold	INS promoter inh	INS promoter inh cell count	GALR2 ag	PKD1 inh	RGS16-Gao
CC(=O)c1ccc(NC(=O)c2noc(C(C)C)c2[N+](=O)[O-])cc1	i	1.15	nt	nt	nt	0.0	87.8
CCn1c(CSc2nncn2-c2ccc(OC)cc2)nc2cc(S(=O)(=O)N(C)C)ccc21	i	0.87	nt	nt	-0.1	-3.3	80.8
Cc1ccccc1S(=O)(=O)Cc1ccc(C(=O)NCc2cccnc2)o1	i	0.82	51.4	105.4	-1.8	-2.1	94.1
CCCOc1cc(C)c(S(=O)(=O)NCCOC)cc1C	i	0.83	27.3	129.6	4.8	-4.2	105.8
CCCOc1ccc(NC(=O)C2CC(=O)N3CCCN=C3S2)cc1 (stereo not given)	i	1.09	-23.7	104.8	-0.3	-8.9	99.0
O=c1c2oc3ccccc3c2ncn1Cc1ccc(F)cc1	i	0.88	37.5	70.3	nt	-7.6	100.0
CCC(=O)NC(=S)Nc1ccc(NC(=O)COc2ccc(Cl)c(C)c2)cc1	i	0.98	55.6	86.1	-1.4	-6.5	69.9
CC(C)(C)OC(=O)NCCCC[C@H](NC(=O)c1nc[nH]c1C(=O)NC1CCN(C(=O)OC(C)(C)C)CC1)C(=O)OC(C)(C)C	i	0.74	nt	nt	nt	nt	104.2
CCCCC1=CC2=CC(=O)C(C)(OC(=O)CC)C(=O)C2=CN1c1ccccc1 (stereo not given)	i	0.79	nt	nt	nt	nt	102.6
O=C(c1csc2c1CCCCC2)N1CCN(c2ncccn2)CC1	i	0.79	60.0	127.4	0.1	-9.2	95.5
CCCNC(=O)C(Cc1ccccc1)NS(=O)(=O)c1ccc2c(c1)c(=O)n(C)c(=O)n2C (stereo not given)	i	0.98	nt	nt	-0.8	-1.4	97.9
CS(=O)(=O)Nc1nc2n(n1)C(c1ccccc1)C=C(c1ccc(Br)cc1)N2 (stereo not given)	nt	nt	12.5	123.3	-2.3	-18.4	99.8
COc1ccc(/C=N/NC(=O)c2cc(C)n(-c3ccccc3)c2C)cc1OC	i	0.93	53.9	86.6	nt	7.2	108.2
Cc1ccc(NC(=O)CSc2nc3nc(C)cc(C)c3c(=O)[nH]2)cc1	i	0.77	nt	nt	-0.1	-7.8	108.2
NC(=S)Nc1cccc2cccnc12	i	0.98	3.2	100.6	-1.6	-3.3	95.5
CCCC(=O)NC1C2CC3CC(C2)CC1C3 (stereo not given)	i	0.88	45.0	101.3	-2.1	-12.4	103.4
COC(=O)c1ccccc1NC(=O)/C=C/C(=O)O	i	1.07	28.1	91.7	-0.4	-7.7	34.5*
Cc1ccc(C2=NN3C(C(=O)c4ccccc4)Oc4ccccc4C3C2)cc1 (stereo not given)	i	0.96	15.9	129.5	0.5	-6.3	57.9
CC(C)Cc1nc(SCC(=O)Nc2ccc(S(N)(=O)=O)cc2)n[nH]1	i	0.81	41.7	126.7	-1.8	-7.2	-42.9
O=C(/C=C/c1cccs1)Nc1cccnc1	i	0.95	0.0	96.5	-0.9	-7.0	102.1
O=c1[nH]c(N/N=C/c2ccccc2)nc2ccccc12	i	1	-13.0	127.5	-1.5	-10.0	101.2
COC(=O)c1ccc(NC(c2ccc(Cl)cc2)P(=O)(OC)OC)cc1 (stereo not given)	i	1.18	nt	nt	-0.4	-2.0	107.2
Cc1cc(C(=O)CSc2nc3ccc(Cl)cc3[nH]2)c(C)n1C	i	0.99	nt	nt	-2.8	-5.0	97.3
O=C(Nc1ccccc1)C1=C(N2CCOCC2)/C(=C/c2cccnc2)CC1	i	0.7	-31.0	90.6	-1.6	-12.6	99.1
Cc1ccnc(N2CCN(C(=O)CSc3nc4ccccc4nc3N3CCC(C)CC3)CC2)c1	i	0.92	nt	nt	nt	1.7	105.0
CC(C)N(Cc1nc(-c2ccc(Cl)cc2)no1)C(=O)CN(C)S(=O)(=O)c1ccc(Cl)cc1	i	0.92	-50.7	128.8	-0.2	2.4	97.7
Cc1ccc(Nc2nnc(SCC(=O)NC3CCS(=O)(=O)C3)s2)c(C)c1 (stereo not given)	i	1.01	nt	nt	nt	1.0	103.6
CC(C)N1C(=O)c2ccc(C(=O)O)cc2C1=O	i	0.99	-36.4	91.0	-0.5	-8.1	101.9
O=[N+]([O-])c1cc(CN2CCOCC2)c2cccnc2c1O	i	0.99	nt	nt	nt	-6.6	98.8
COCCNC(=O)C(c1ccc(Cl)cc1)N(C(=O)CCC(=O)Nc1ccccn1)C1CCCC1 (stereo not given)	i	0.94	0.0	73.3	-0.4	0.7	107.2
Cc1cccc(C)c1NC(=O)c1cccc2c1-c1ccccc1C2=O	i	1.08	nt	nt	-3.1	-0.9	92.8
COC(=O)c1ccc(Nc2nc(C)cc(=O)[nH]2)cc1	i	1.05	-18.4	168.4	-0.1	-7.6	102.7
CCCCCC(=O)NNC(=S)NC(=O)c1cccc([N+](=O)[O-])c1	i	1	17.2	114.0	-1.0	-2.3	99.2
Cc1ccc(S(=O)(=O)N2CCN(CC(=O)N/N=C/C=C/c3ccccc3)CC2)cc1	i	0.97	-46.7	78.1	-1.2	7.5	103.0
Cc1ccc(C(=O)C2=C(O)C(=O)N(Cc3ccccc3)C2c2cccnc2)o1 (stereo not given)	i	0.88	-14.7	106.3	0.9	0.2	95.4
Cc1cccc(OCc2nnc(SCC(=O)Nc3ncc(C)s3)o2)c1	i	0.93	nt	nt	nt	1.6	96.8
O=C(Cc1ccc(S(=O)(=O)N2CCCCC2)s1)Nc1ccc(F)cc1F	i	1	-50.0	33.9	-2.1	-2.6	102.8
Cc1ccc(NC(=O)COC(=O)Cn2cnc3ccccc32)cc1S(=O)(=O)N(C)C	i	0.9	35.7	105.7	0.2	6.2	49.0
O=C(Nc1nc(-c2ccc(Cl)s2)cs1)c1ccncc1	i	0.92	-3.0	125.4	-2.3	2.5	108.1
COc1ccc(CCNS(=O)(=O)c2ccc3c(c2)CCN3C(=O)C2CC2)cc1OC	i	0.82	-81.2	76.6	-0.6	-1.8	108.4
CCC(=O)c1coc2ccc(O)cc12	i	1.04	31.2	85.9	-1.0	-5.6	nt
Cc1ccccc1NC(=O)CSc1nnc(-c2ccoc2C)n1CCc1ccccc1	i	0.92	nt	nt	-0.4	1.1	104.1
CC(C)(C)n1nnnc1C(c1cccnc1)N1CCN(c2ccccc2)CC1 (stereo not given)	i	0.943	18.9	91.5	-1.8	-3.4	97.4
CCc1ccc(NC2CC(=O)N(CCc3ccc(OC)c(OC)c3)C2=O)cc1 (stereo not given)	i	0.97	nt	nt	nt	-5.6	101.7
Cc1ccc(/C(N)=N/OC(=O)Cc2ccccc2)cc1	nt	nt	-25.0	98.6	-0.5	-2.2	95.6
Cc1nc(NC(=O)CSc2nc3cccnc3n2Cc2ccccc2)sc1C	i	0.74	-25.0	105.8	-1.8	-10.2	78.2
Cc1nn(-c2ccccc2)c(C)c1NC(=O)CCl	i	0.93	-16.1	80.5	-0.1	-2.4	111.3
COC(=O)c1c(NC(=O)COC(=O)c2ccc(NC(=O)CC#N)cc2)sc2c1CCCCC2	i	0.84	nt	nt	nt	-11.2	102.9
Cc1cnc2cc([N+](=O)[O-])ccc2n1	i	1.02	-6.7	87.9	0.0	9.1	96.1
COc1ccc(C2CC(c3ccccc3)=NN2C(=O)COC(=O)COc2ccccc2)cc1 (stereo not given)	i	0.99	nt	nt	nt	-5.3	102.7
COc1ccc(C(=O)/C=C/c2cn(CC(O)CN3CCN(C)CC3)c3ccccc23)cc1OC (stereo not given)	i	0.93	nt	nt	nt	nt	101.5
CC(C)CC(NC(N)=O)C(=O)OCC(=O)Nc1ccc(OC(F)F)cc1 (stereo not given)	i	0.98	nt	nt	nt	-2.1	98.8
Cc1ccc(S(=O)(=O)/N=C/c2ccc(N(C)C)cc2)cc1	i	0.98	-11.1	99.2	-0.9	-11.4	102.6
Cc1ccc2nc(SCc3nnc(-c4ccccc4)o3)[nH]c2c1	i	0.907	-22.2	212.4	-2.3	-5.9	101.9
O=C(c1ccccc1)C1CN(c2ccccc2)CC1c1ccc(Cl)cc1 (stereo not given)	nt	nt	nt	nt	-2.9	-4.9	106.6

Reformatted with each value named: entries from further up.
Cc1ccc2nc(SCc3nnc(-c4ccccc4)o3)[nH]c2c1
  HSV augment = i
  HSV augment primary fold = 0.907
  INS promoter inh = -22.2
  INS promoter inh cell count = 212.4
  GALR2 ag = -2.3
  PKD1 inh = -5.9
  RGS16-Gao = 101.9

O=C(c1ccccc1)C1CN(c2ccccc2)CC1c1ccc(Cl)cc1 (stereo not given)
  HSV augment = nt
  HSV augment primary fold = nt
  INS promoter inh = nt
  INS promoter inh cell count = nt
  GALR2 ag = -2.9
  PKD1 inh = -4.9
  RGS16-Gao = 106.6
